# Rango dissoc inh – inhibition of RanGTP-driven Rango-importin beta dissociation. O95149+P62826. Biochemical FRET Rango-importin beta, RanGTP-induced dissociation. Potency, µM (doses to about 46.1 µM), inactives show at the highest dose activity change, negative = inhibition. 340,000 compounds, 0.071% hits. AID 540253; active means falling FRET ratio curve, often poorly fitted, with flat reads before Ran was added; inconclusive means other falling curves, or compound fluorescence or quenching; inactive means flat or rising ratio curve;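 note: potency is the fitted concentration of half-maximal effect; % of control where 0% means no effect; nearly all actives have a fitted effect of over 45% in size; -100% = wells without RanGTP and RCC1; the record marks most hits as doubtful in a second field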
#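 Two FRET readings bracket the reaction: one 5 min after compound meets Rango–importin beta, another 45 min after RanGTP-RCC1 (0.6 uM Ran, 0.2 uM RCC1, 2 mM GTP) is added. Only the second defines inhibition.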
# Rango complex inh – prevents formation of the Rango-importin beta complex | Q14974 | Rango CFP/YFP FRET sensor + importin beta, 45 min | Potency, µM (top dose mostly 92.2 µM), for the others: at the highest dose inhibition of complex formation | 340,000 compounds, 0.031% hits | AID 540263; active = rising FRET ratio curve, often small or poorly fitted; inconclusive = mostly compound fluorescence or quenching in the first reads; inactive = flat curves in all reads;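 note: potency is the fitted concentration of half-maximal effect; 0% = DMSO wells and 100% = buffer wells lacking importin beta; nearly all actives have a fitted effect of over 15% in size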
# Target sequence (Q14974 whole entry, looked up): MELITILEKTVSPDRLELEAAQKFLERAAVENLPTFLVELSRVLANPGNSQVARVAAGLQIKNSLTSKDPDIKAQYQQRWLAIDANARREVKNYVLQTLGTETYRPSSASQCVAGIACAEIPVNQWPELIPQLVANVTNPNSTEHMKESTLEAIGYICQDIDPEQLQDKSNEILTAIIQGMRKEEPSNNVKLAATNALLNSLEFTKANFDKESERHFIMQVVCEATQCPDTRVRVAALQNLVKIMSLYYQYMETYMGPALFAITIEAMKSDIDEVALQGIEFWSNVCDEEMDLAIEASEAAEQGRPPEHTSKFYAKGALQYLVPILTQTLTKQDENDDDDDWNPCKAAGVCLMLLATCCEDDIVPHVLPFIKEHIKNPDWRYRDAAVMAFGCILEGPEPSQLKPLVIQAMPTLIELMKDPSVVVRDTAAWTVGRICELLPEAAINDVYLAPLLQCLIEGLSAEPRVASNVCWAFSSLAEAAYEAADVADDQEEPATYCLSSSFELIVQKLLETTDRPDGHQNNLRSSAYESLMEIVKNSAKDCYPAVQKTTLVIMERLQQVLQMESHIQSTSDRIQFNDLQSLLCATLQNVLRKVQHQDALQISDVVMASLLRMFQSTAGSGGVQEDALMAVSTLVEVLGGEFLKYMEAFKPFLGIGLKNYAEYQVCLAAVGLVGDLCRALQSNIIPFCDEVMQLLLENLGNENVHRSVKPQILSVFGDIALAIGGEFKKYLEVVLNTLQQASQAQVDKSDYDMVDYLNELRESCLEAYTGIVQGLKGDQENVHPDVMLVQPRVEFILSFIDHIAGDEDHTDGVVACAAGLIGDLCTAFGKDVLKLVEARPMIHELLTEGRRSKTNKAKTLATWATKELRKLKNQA
#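 Inhibition scored from the CFP 486 nm/YFP 530 nm FRET ratio 45 min after adding 0.125 microM importin beta to 50 nM Rango biosensor preincubated 5 min with compound (room temperature, PBS with DTT, Tween-20, BSA). No-importin wells as positive control.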
# miR-21 FLuc – raises the signal of a miR-21 reporter. HeLa miR-21 FLuc reporter, luciferase, 48 h. Potency, µM (highest dose often 38.3 µM), inactives show top-dose reporter change, positive = more light. 340,000 tested, under 10 active. AID 2288; active = well fitted rising curve with a large enough effect; inconclusive = small, poorly fitted or top-dose-only effect; inactive = no such curve, though single readings can be large or run the other way;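 note: % of control where 0% means no effect; miR-21 action dims this reporter so a rising signal means less miR-21 action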
#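 HeLa miR-21-FLuc reporter line, endogenous miR-21; 2000 cells/well in DMEM/10% FBS; compound titration up to ~40uM final, 48 h, 37 degree Celsius; luciferase detection reagent, 15 min lysis, CCD luminescence.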
# GLA inh pH 4.5 – blocks human alpha-galactosidase A at pH 4.5; P06280; purified enzyme, 4-MU-alpha-Gal fluorescence, pH 4.5; activity change, negative = inhibition, % at 105 µM; 230,000 tested, under 10 active; AID 1467; inconclusive = small, poorly fitted or top-dose-only inhibition, or a rising curve; inactive = flat fitted curve, though single readings scatter; no compound was filed as active;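 note: 0% = full activity with enzyme and -100% = basal without enzyme; dose as in the result columns while the protocol names 77 µM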
# The depositor's hits bear a star; ? = inconclusive; · = no result given; [ ] = remark or other dose. An excerpt, so the mix of outcomes need not match the whole.
Rango dissoc inh	Rango complex inh	molecule	miR-21 FLuc	GLA inh pH 4.5
-7.6%	0.4%	O=[N+]([O-])c1cccc(-n2nncc2-c2ccccc2)c1	-4.7%	·
16.0%	-0.7%	COCCCNC(=O)Cn1cnc2c(NCc3ccccc3)ncnc21	·	·
-15.8%	-0.3%	O=C(CCN1C(=O)[C@@H]2Cc3ccccc3CN2C1=O)NCc1ccc(Cl)cc1	5.8%	·
-3.7%	-2.7%	Cc1cc(C)nc(NS(=O)(=O)c2ccc(NC(=O)c3cccs3)cc2)n1	-11.5%	-3.4
-11.0%	-0.6%	CCCCn1c(SCC(=O)NC(=O)Cc2ccccc2)nc2ccccc2c1=O	·	·
5.4%	-1.4%	COC(C/C=C/[C@@H](O)[C@H](C)OCc1ccccc1)OC	·	·
27.7%	2.3%	CCN(CC)CCCNC(=O)C1c2ccccc2C(=O)N(C)C1c1ccc(OC)cc1 (centres undefined)	-1.9%	5.9
5.8%	-0.3%	Cc1cc(C)n(-c2cc(C(=O)O)cc(C(=O)O)c2)n1	-0.5%	8.7
6.0%	0.1%	Cc1cccc(CSc2ncnc3nc[nH]c23)c1	-18.2%	3.5
0.8%	-1.2%	COC(=O)CNC(=O)c1cc(-c2ccncc2)nc2ccc(C)cc12	2.0%	·
30.9%	0.5%	O=C(Nc1ccccc1Oc1cccnc1)C1CCCN(C/C=C/c2ccccc2)C1 (centres undefined)	4.7%	·
4.0%	-2.5%	CCC(C(=O)NC1CCCC1)N(C(=O)Cn1nnc(-c2cccs2)n1)c1cnc2ccccc2c1 (centres undefined)	-3.7%	1.9
·	·	CC(NC(=O)CCN1N=C(c2ccccc2)CCC1=O)c1ccc2c(c1)OCCO2 (centres undefined)	-1.8%	0.1
-11.6%	1.2%	CC1(C(=O)O)CCC(C(=O)NC2CCCCCC2)C1(C)C (centres undefined)	-4.6%	-10.2
-18.8%	-0.3%	CC1Cc2ccccc2N1C(=O)CSc1ncc(-c2ccc(F)cc2)n1C (centres undefined)	-58.8%	-1.9
-7.8%	-0.7%	CCCOc1ccc(N2C(=O)CC(NCCCN3CCC(C(N)=O)CC3)C2=O)cc1 (centres undefined)	·	·
-12.7%	?	CCN1C(=O)N(CC)C2NC(=S)NC21 (centres undefined)	-5.2%	-14.1
-3.0%	-8.2%	Cc1cc(C(=O)C(C)OC(=O)c2cnccn2)c(C)n1-c1ccccc1 (centres undefined)	·	·
-9.9%	?	CCOC(=O)c1cnc2ccc(C)cn2c1=O	-11.6%	?
0.0%	1.7%	O=C1CN=C(Nc2ccccc2Cl)N1Cc1ccc2c(c1)OCO2	-8.7%	-3.0
-1.0%	-1.0%	Cc1nc(SCCCSc2n[nH]c(C)n2)n[nH]1	-2.4%	-10.4
8.3%	-0.9%	COc1cccc(NC(=O)C(NCC(C)(C)CN(C)C)c2ccccc2)c1 (centres undefined)	-5.8%	6.6
15.3%	1.5%	COc1cccc(CNC(=O)CSCC(=O)Nc2ccc(C)cc2)c1	·	·
-1.0%	-1.0%	OC(COc1ccccc1)Cn1cc(Br)cn1 (centres undefined)	-16.3%	-2.3
4.2%	2.0%	CC(C)c1ccc(NC(=O)C2C3C=CC(CC3)C2C(=O)O)cc1 (centres undefined)	·	·
-15.5%	-0.4%	COc1cccc(-n2c(SCC(=O)N3CCc4ccccc43)nnc2-c2c[nH]c3ccccc23)c1	-4.2%	7.5
?	?	CC(C)OC(=O)CCCN1C(=O)c2ccc(N)cc2C1=O	-16.1%	2.1
0.5%	0.1%	COc1ccc(-c2nn(-c3ccccc3C)cc2CNC(C)c2cn(C)nc2C)cc1F (centres undefined)	-8.9%	-1.8
-2.6%	-2.3%	CC(=O)N1CCc2cc(S(=O)(=O)NC(CC(C)C)C(=O)Nc3cc(C(=O)O)ccc3C)ccc21 (centres undefined)	-3.9%	-6.6
2.6%	-2.5%	CCC(C)(C)NC(=O)C(c1ccc(O)cc1)N(C(=O)Cn1nnc2ccccc21)c1ccc(NC(C)=O)cc1 (centres undefined)	2.3%	2.8
0.2%	1.5%	CC(C)n1nnnc1-c1cc(Cl)cc(Cl)c1	-0.1%	3.2
-10.5%	-0.2%	Cc1cc(C)cc(C(=O)OCC(=O)NCc2ccco2)c1	·	·
?	-0.6%	NC1=NC(=O)/C(=C/c2c(OS(=O)(=O)c3ccc(Cl)cc3)ccc3ccccc23)S1	-4.5%	-9.9
6.4%	-0.7%	CCN(CC(=O)NC1CCS(=O)(=O)C1)C(=O)c1ccc(OC)c([N+](=O)[O-])c1 (centres undefined)	·	·
-0.3%	0.0%	O=C(COC(=O)COc1ccccc1[N+](=O)[O-])NC1CCCCC1	·	·
-16.6%	7.9%	COc1ccccc1Nc1nc(-c2ccccc2)nc2ccccc12	-2.1%	4.4
-4.5%	-0.8%	O=C(NCc1cccc(Cl)c1)c1cccc(OC2CCN(C(=O)C3CC3)CC2)c1	21.9%	·
-4.8%	-0.6%	COc1ccc(NC(=O)C2CCN(C(=O)Nc3ccccc3)CC2)cc1S(=O)(=O)N(C)C	·	·
1.0%	1.8%	CCn1nnnc1NCc1c(OC)ccc2ccccc12	-2.1%	-0.2
7.4%	1.4%	Cc1csc(NC(=O)CN(C)S(=O)(=O)c2cccc3cccnc23)n1	0.8%	-5.0
-7.8%	5.3%	Cc1nn(-c2ccccc2)c2c1C1(C(=O)N(C)c3ccccc31)N(c1ccccc1)C(=O)N2 (centres undefined)	-9.5%	-8.6
3.1%	2.1%	CCc1ccc([C@@H]2CC=C(C(=O)O)[C@H](c3ccccc3F)N2S(=O)(=O)c2ccc(C)cc2)cc1	·	·
6.8%	1.5%	CC(=O)c1cccc(NC(=O)C(C)N2CCc3ccccc3C2)c1 (centres undefined)	-7.9%	3.5
?	?	COC(=O)c1c(C)nc2nonc2c1N	-0.2%	-2.2
6.7%	0.2%	COc1ccc(NC(=O)CN(C)C(=O)CCCN2C(=O)c3cccc4cccc(c34)C2=O)cc1	·	·
7.2%	1.3%	CCC(Cc1ccccc1)NC(=O)C1CCCCC1 (centres undefined)	-5.5%	·
3.6%	-5.4%	Cc1c(C(=O)NCc2cccnc2)oc2ccc(S(=O)(=O)N3CCC4(CC3)OCCO4)cc12	1.4%	-11.6
-0.5%	2.8%	CC1(C)CC(=O)C2=C(C1)N(Cc1cccnc1)C(=O)C2(NC(=O)C1CC1)C(F)(F)F (centres undefined)	-1.3%	-3.6
4.8%	-0.4%	CCCCn1c(NC(C)CC)nc2c1c(=O)[nH]c(=O)n2C (centres undefined)	-16.7%	3.1
-12.0%	2.4%	Cc1ccc(CNc2ncccc2-c2nc3cc(Cl)ccc3o2)cc1	-9.0%	3.2

# Additional structures:
Rango dissoc inh	Rango complex inh	molecule	miR-21 FLuc	GLA inh pH 4.5
-10.7%	-8.6%	COc1ccc2c(CN3CCN(S(=O)(=O)c4cccs4)CC3)cc(=O)oc2c1	0.0%	3.8
0.5%	-2.7%	Cc1cc(C)cc(NC(=O)N2CCCC2C(=O)Nc2ccc(-n3cnnn3)cc2)c1 (centres undefined)	-1.8%	1.4
-22.1%	?	CCN(CC(=O)Nc1cc(C)on1)CC(=O)Nc1ccccc1C(F)(F)F	·	·
-6.2%	?	O=C(CN1C(=O)C(c2ccccc2)Oc2cccnc21)NCc1ccccc1F (centres undefined)	-4.7%	·
-0.1%	-0.6%	Cc1cccc(N2CCN(S(=O)(=O)c3ccc4c(c3)NC(=O)CO4)CC2)c1C	6.4%	·
24.5%	0.4%	COc1ccc(Cc2nn[nH]n2)cc1	-6.6%	5.3
18.6%	-5.1%	C#CCOCCOCCOCCNc1nc(N2CCN(C(=O)[C@H]([C@@H](C)CC)n3cc(CCCCN)nn3)CC2)nc(N2CCN(C(=O)[C@H](CCCCN)n3cc(CC(C)O)nn3)CC2)n1 (some centres undefined)	·	·
0.7%	5.5%	Cc1[nH]c2ccc(C(=O)O)cc2c1C	0.2%	2.2
-7.4%	-0.4%	CCNC(=O)c1ccc(C2SCC(=O)N2Cc2ccco2)cc1 (centres undefined)	-3.6%	3.5
-12.3%	-1.5%	O=C(CSc1nc2ccccc2c(=O)n1-c1ccccc1)c1c[nH]c2ccccc12	-19.5%	0.9
-9.1%	-2.5%	Cc1c(NC(=O)c2ccc(CC(C)C)o2)c(=O)n(-c2ccccc2)n1C	0.0%	·
-1.5%	-3.4%	CC1(C)CC(NCCC(c2ccccc2)c2ccco2)CCO1 (centres undefined)	0.6%	-1.9
-11.5%	-1.6%	CCOC(=O)N1CCN(C(=O)c2cnc3n(c2=O)CCS3)CC1	-2.6%	-19.6
-1.7%	-5.3%	COc1ccc(C(=O)N2CCN=C2SCc2cccnc2)c(OC)c1	-16.9%	0.9
-0.1%	-0.1%	C/C=C/c1ccc(OCC(=O)OCc2csc(CC(=O)Nc3ccccc3C)n2)c(OC)c1	1.6%	·
-12.7%	-2.5%	CC(C)(C)OC(=O)N1CCOCCOCCN(C(=O)OC(C)(C)C)CCOCCOCC1	-7.4%	0.7
5.3%	-0.9%	COc1ccccc1NC(=O)Cn1cc(C#N)c2ccccc21	-5.7%	-8.4
-7.5%	-0.3%	Nc1nc(N2CCOCC2)nc2ccccc12	-0.3%	14.1
7.5%	-0.9%	CCOc1ccc(C(=O)Nc2ccc3c(c2)OCCO3)cc1OC	-40.8%	0.3
-17.4%	-1.7%	Cc1ccc2c(CN3CCN(Cc4ccccc4)CC3)cc(=O)oc2c1	-0.1%	·
-2.3%	-0.1%	CCCCNC(=O)COC(=O)CNC(=O)c1cc(Cl)cc([N+](=O)[O-])c1	2.3%	0.2
-15.3%	4.4%	O=C(NCc1ccco1)c1ccccc1NS(=O)(=O)c1ccc2c(c1)OCCO2	-6.6%	13.2
15.3%	0.2%	Cc1ccccc1N1CC(O)(c2cccs2)[N+]2=C1CCCC2 (centres undefined)	-0.3%	-7.6
?	-6.4%	O=C(Nc1c(F)cc(F)cc1Br)c1cc(S(=O)(=O)N2CCN(c3ccccn3)CC2)ccc1F	-0.6%	-7.5
-11.5%	?	C/C(=C\C(=O)c1ccccc1)Nc1ccc(O)cc1	30.5%	-0.5

# A different layout for part of the listing above:
Rango dissoc inh	Rango complex inh	miR-21 FLuc	GLA inh pH 4.5	SMILES
0.5%	-2.7%	-1.8%	1.4	Cc1cc(C)cc(NC(=O)N2CCCC2C(=O)Nc2ccc(-n3cnnn3)cc2)c1 (centres undefined)
-1.5%	-3.4%	0.6%	-1.9	CC1(C)CC(NCCC(c2ccccc2)c2ccco2)CCO1 (centres undefined)

# Next entries
Rango dissoc inh	Rango complex inh	molecule	miR-21 FLuc	GLA inh pH 4.5
-3.0%	-0.6%	CC1CC(C)CN(S(=O)(=O)c2cccc(C(=O)N3CCN(c4ccc(F)cc4)CC3)c2)C1 (centres undefined)	·	·
-3.2%	0.8%	O=C(CSc1nc2ccccc2c2c1CCCC2)N1CCOCC1	12.9%	·
18.5%	2.8%	COC(=O)c1ccc(NC(=O)C2C3CCC(C3)C2C(=O)O)cc1 (centres undefined)	-11.0%	-4.7
-7.0%	-2.5%	O=C(N/N=C/c1cccc([N+](=O)[O-])c1)C1COc2ccccc2O1 (centres undefined)	0.4%	-9.9
0.7%	-2.2%	Cc1nn(-c2ccccc2)c2sc(-c3nnc(SCC(=O)O)o3)cc12	9.9%	6.1
-9.0%	3.7%	COc1ccc(NC(=O)CCC2CCCC2)cc1OC	-23.7%	0.8
1.1%	?	Cc1cccc(N=Nc2c(N)n[nH]c2-c2ccc(Cl)cc2)c1	11.6%	-5.5
?	?	O=C(Nc1cccc2nsnc12)c1ccc(-c2cccc(Cl)c2)o1	-17.9%	-4.2
13.1%	-0.4%	C=CCNC(=S)NNC(=O)c1cccnc1	0.5%	-2.0
-5.4%	0.2%	Cc1cc(C)c(N2C(=O)C3C4CC(=O)C(c5ccccc54)C3C2=O)c(C)c1 (centres undefined)	8.0%	3.7
-10.5%	-1.7%	COc1ccccc1OCC(=O)N1CCCC(Nc2ccc(F)c(F)c2)C1 (centres undefined)	-0.9%	·
-6.5%	-3.0%	Cc1cc(=O)[nH]c2c(C)cc(S(=O)(=O)N3CCCCC3)cc12	-3.8%	·
17.0%	0.7%	COc1ccc(-n2ccc(=O)c(C(=O)O)n2)cc1	0.0%	·
5.1%	0.8%	Cc1onc(C(=O)Nc2sc3c(c2C#N)CCCC3)c1[N+](=O)[O-]	-18.7%	1.0[21.1 µM]
